# TRPV1 potentiator = potentiators of human vanilloid receptor 1 (TRPV1); potentiation, % at 8.33 µM; TRPV1-expressing cells, Fluo-8 calcium influx, capsaicin EC20 potentiation; host cell line not named in the record; control for the full effect not named in the record; hit rate 0.02% among 320,000; Q8NER1; active means potentiation above 80%; inconclusive means 30% to 80%; inactive means below 30%; note: 0% is about no effect
# Target sequence (Q8NER1 whole entry, looked up): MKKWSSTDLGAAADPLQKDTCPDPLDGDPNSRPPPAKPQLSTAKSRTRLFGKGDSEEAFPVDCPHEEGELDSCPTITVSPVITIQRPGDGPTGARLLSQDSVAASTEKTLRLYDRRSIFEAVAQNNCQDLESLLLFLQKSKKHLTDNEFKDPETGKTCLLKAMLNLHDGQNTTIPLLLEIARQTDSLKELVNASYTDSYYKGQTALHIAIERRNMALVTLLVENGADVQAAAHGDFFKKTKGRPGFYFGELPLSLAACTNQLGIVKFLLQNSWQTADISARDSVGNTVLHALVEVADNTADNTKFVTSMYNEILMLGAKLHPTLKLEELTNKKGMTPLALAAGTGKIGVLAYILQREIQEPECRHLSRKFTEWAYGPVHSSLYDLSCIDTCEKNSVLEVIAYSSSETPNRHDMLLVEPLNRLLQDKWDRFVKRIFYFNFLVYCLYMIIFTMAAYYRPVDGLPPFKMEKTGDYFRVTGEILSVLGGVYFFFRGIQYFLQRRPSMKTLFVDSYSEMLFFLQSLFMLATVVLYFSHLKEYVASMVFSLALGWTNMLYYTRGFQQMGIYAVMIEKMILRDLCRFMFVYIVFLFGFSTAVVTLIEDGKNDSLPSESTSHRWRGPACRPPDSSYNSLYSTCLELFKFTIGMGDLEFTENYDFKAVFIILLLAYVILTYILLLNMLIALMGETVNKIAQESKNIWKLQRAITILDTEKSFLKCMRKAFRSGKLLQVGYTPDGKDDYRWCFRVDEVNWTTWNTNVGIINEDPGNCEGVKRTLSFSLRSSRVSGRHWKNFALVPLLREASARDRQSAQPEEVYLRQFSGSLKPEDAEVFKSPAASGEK
#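 Fluo-8 calcium influx in TRPV1-expressing cells, kinetic read (ex 480/em 520 nm). Compound added and read 3 min for agonist activity, followed by capsaicin at EC20 final and 2 min further read for enhancement.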
# Menin-MLL FL inh = inhibitors of human menin-MLL interaction, wild-type MLL peptide; Fluorescence polarization, fluorescein-MLL peptide displacement from menin; FP activity change, % at 61.4 µM; 290,000 tested, under 10 active; AID 1766; inconclusive = falling polarisation curve, or a change in total fluorescence; inactive = total fluorescence flat and polarisation flat or rising; no compound was filed as active; the % refers to the polarisation; negative = inhibition;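 note: % of control where 0% means no effect; inhibitors lower the polarisation; unlabelled MLL peptide was the positive control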
# Sfp PPTase inh = inhibitors of Bacillus subtilis Sfp phosphopantetheinyl transferase; Potency, µM, for the others: max response, negative = inhibition, hits mostly inhibitors; hit rate 3.5% among 310,000; Q9F4F7; Biochemical Sfp PPTase activity, qHTS; active = well fitted inhibition curve with a large enough effect; inconclusive = small, poorly fitted or top-dose-only effect, or another doubt; inactive = no such curve, though single readings can be large or run the other way;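 note: the enzyme is Sfp with the accession as filed and its product quenches rhodamine fluorescence; potency is the fitted concentration of half-maximal effect; 0% = enzyme reaction without inhibitor and -100% = no enzyme wells; top concentration of the series not given in the record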
#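 After 15 min at room temperature with compound, 15 nM Sfp received 5 uM rhodamine-CoA plus 12.5 uM BHQ-2-ybbR (50 mM Hepes pH 7.6, 10 mM MgCl2). Rate came from the fluorescence difference over 30 min, ex 525/em 598 nm.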
# ClpP mod = qHTS Assay for Activators of ClpP. ATP-dependent Clp protease proteolytic subunit (Bacillus subtilis (strain 168)), P80244. purified B. subtilis ClpP, FRET peptide cleavage, 20 min. Potency, µM (doses to about 57.5 µM), without a hit: at the top dose activity change, negative = active. hit rate 1.9% among 340,000; active = well fitted falling curve with a large enough effect; inconclusive = small, poorly fitted or top-dose-only effect; inactive = no such curve, though single readings can be large or run the other way; note: potency is the fitted concentration of half-maximal effect; the source files actives as falling curves though it sought activators and does not explain the sign; nearly all actives have a fitted effect of over 65% in size; many hits overshoot -100%
# Target sequence (P80244 whole entry, looked up): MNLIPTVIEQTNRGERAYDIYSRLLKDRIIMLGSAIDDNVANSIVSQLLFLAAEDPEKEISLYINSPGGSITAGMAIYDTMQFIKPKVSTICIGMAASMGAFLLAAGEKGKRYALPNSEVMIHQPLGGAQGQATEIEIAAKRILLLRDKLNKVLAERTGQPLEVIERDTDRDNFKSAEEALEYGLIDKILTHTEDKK
#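 Buffer: 100 mM Tris/HCl pH8, 100 mM KCl, 0.05% low protease BSA, 2.5% glycerol, 0.01% Tween-20. ClpP 10 microg/mL final; 20 min RT; delta FRET normalized to ADEP and DMSO controls.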
# gsp ag = agonists of gsp mutant (McCune-Albright syndrome); AID 624287; hit rate 0.13% among 340,000; Potency, µM (doses to about 76.9 µM), without a hit: at the top dose activation (cAMP increase), usual class: activators; gsp mutant cells, cAMP HTRF, 30 min; control for the full effect not named in the record; active = well fitted activation curve with a large enough effect; inconclusive = small, poorly fitted or top-dose-only effect, or another doubt; inactive = no such curve, though single readings can be large or run the other way; cell line not stated here;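 note: phosphodiesterase inhibitor Ro 20-1724 added with compounds to block cAMP breakdown; potency is the fitted concentration of half-maximal effect; nearly all actives have a fitted effect of over 60% in size; about a fifth of the inactives were tested at one dose only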
#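 Cells in DMEM/10% FBS with G418 were pretreated with compounds in DMSO plus […] (300 uM stock) for 30 min at 37C. cAMP was measured by HTRF (cAMP-d2 plus anti-cAMP antibody-K) after 30 min at room temperature.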
# gsp antag = antagonists of gsp mutant (McCune-Albright syndrome) | gsp-mutant cells, cAMP HTRF, 30 min; control for the full effect not named in the record | Potency, µM (series often up to 76.9 µM), for inactives: top-dose activity change, negative = inhibition, actives largely listed as inhibitors | hit rate 0.4% among 340,000 | AID 624288; active = falling curve of any shape with a large fitted effect; inconclusive = falling curve, mostly with a smaller effect; inactive = flat or rising curve; cell line not stated here;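 note: intracellular cAMP measured with PDE inhibitor Ro 20-1724 present during compound exposure; potency is the fitted concentration of half-maximal effect; % is set by controls: 0 for no effect and ±100 for the full control effect; nearly all actives have a fitted effect of over 65% in size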
#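 Cells in G418 medium, seeded 16-24 h, 37C; buffer exchange to DPBS + 1 mM CaCl2, 0.5 mM MgCl2, 0.05% BSA; cpds in DMSO + […] (300 uM stock), 30 min 37C; HTRF cAMP detection.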
# CtBP-E1A inh = CtBP/E1A binding inhibition. AlphaScreen GST-E1A/His-CtBP binding, 1536-well; hits give low values; control for the full effect not named in the record. activity change, % (test concentration not listed). hit rate 0.49% among 340,000. AID 651724; in the data active means activity change below about -65%; inconclusive means about -30% to -65%; inactive means above about -30%; note: % is set by controls: 0 for no effect and ±100 for the full control effect; compound concentration not given in the record
#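 GST-E1A and His-tagged CtBP (125 nM each as 5X stock) were preincubated with pin-transferred compound for 2 h at 37 °C in the dark, then glutathione donor and nickel acceptor beads were added for 1 h before AlphaScreen reading.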
# An asterisk follows results filed as active; ? = inconclusive; . = not tested or not shown; [ ] = remark or other dose.
canonical_smiles	TRPV1 potentiator	Sfp PPTase inh	gsp antag	CtBP-E1A inh	Menin-MLL FL inh	gsp ag	ClpP mod
COc1ccc(/C=N/Nc2nc(C)nc(N)n2)cc1	0	-10%	13%	2	3.4	3%[15.4 µM]	2.3%
Cn1ccnc1COc1ccc(/C=N/O)cc1	3	16%	7%	5	0.0	-47%[inhibitor]	.
COc1ccc(S(=O)(=O)N2CCCC2)cc1NC(=O)c1ccccc1	0	13%	-1%	-13	-0.4	-5%	.
Cc1cc(C(=O)COC(=O)c2cccnc2Cl)c(C)n1C	.	.	4%	-11	.	?	1.1%
COc1cc(/C=C2\SC(=O)N(c3ccccc3Cl)C2=O)cc([N+](=O)[O-])c1O	-13	-22%	?	-28	0.4	-11%	0.3%
COc1cccc(CC(=O)N2CCCC(CCC(=O)N3CCN(c4ccccn4)CC3)C2)c1 (stereo not drawn)	-5	16%	-14%	11	-2.6	19%[15.4 µM]	.
CC(=O)c1ccc(C)cc1OC(=O)c1cccc(F)c1	1	13%	8%	6	-2.0	-20%	.
CCO[C@@H]1OC(C(=O)N2CCOCC2)=C[C@H](c2ccc(C(F)(F)F)cc2)[C@H]1CCCO	3	10%	0%	8	1.4	.	0.5%

# Next part
canonical_smiles	TRPV1 potentiator	Sfp PPTase inh	gsp antag	CtBP-E1A inh	Menin-MLL FL inh	gsp ag	ClpP mod
COc1cc2c(cc1OC)n(CC(=O)NC1CCCCCC1)n1c(C)cc(=O)nc21	15	3%	6%	-1	.	?	4.0%
COc1ccc(CN(CC2CCC(C(=O)O)CC2)C(=S)Nc2ccccc2C)cc1 (stereo not drawn)	7	5%	-10%	0	6.8	6%	.
Cc1cc(NC(=O)Nc2c[nH]c(=O)[nH]c2=O)ccc1Br	-18	2%	-20%	-5	0.4	23%	-0.2%
Cc1cc(C)c2c(N)c(C(=O)N/N=C/c3cccnc3)sc2n1	-2	-1%	-16%	?	-7.9	8%[15.4 µM]	.
COc1cc(Cl)ccc1OCc1cc(C(=O)N2CCN(C)CC2)no1	5	8%	20%	-6	.	?	0.2%
O=C(Nc1ccc(O)cc1)c1ccc(NC(=O)c2ccco2)cc1	2	-4%	?	0	?	-1%[15.4 µM]	.
Cc1oc(-c2cccs2)nc1CN1CCC(C(=O)N2CCCC2)CC1	4	7%	4%	.	-0.4	-24%	?
CCN1CCN(CC(O)COc2cccc(OC)c2)CC1 (stereo not drawn)	0	11%	1%	7	3.8	2%	?

# The list continues:
canonical_smiles	TRPV1 potentiator	Sfp PPTase inh	gsp antag	CtBP-E1A inh	Menin-MLL FL inh	gsp ag	ClpP mod
Fc1ccc(-c2csc(N3CCC(c4ccccc4)C3)n2)cc1 (stereo not drawn)	16	-11%	-20%	2	-3.4	1%	-0.3%
NC(=S)N/N=C/c1ccc2ccccc2c1	-22	-11%	2%	-2	1.6	13%	-4.7%
O=C(CSc1ccc2nnc(-c3cccs3)n2n1)N1CCCC1	17	-21%	-26%	2	0.1	-3%[15.4 µM]	.
CCC(=O)N1CCn2c1nc1ccccc12	0	8%	12%	-1	2.0	-46%[inhibitor]	-2.1%
CC1(C)C(c2cccs2)=[N+]([O-])C2(CCCCC2=O)N1O (stereo not drawn)	16	2%	1%	-7	0.6	0%[15.4 µM]	.
Cc1noc(C)c1COc1ccccc1C(=O)NC1CCC(C)CC1 (stereo not drawn)	-9	14%	0%	0	.	19%	-6.2%
CCCCc1ccc(NC(=O)C(C)CC)cc1 (stereo not drawn)	5	-26%	6%	14	1.5	5%	-0.4%
CCOc1ccc(S(=O)(=O)Nc2ccc(O)c(Sc3ncn[nH]3)c2)cc1	2	-20%	4%	-5	1.8	11%	1.4%

# Other structures.
canonical_smiles	TRPV1 potentiator	Sfp PPTase inh	gsp antag	CtBP-E1A inh	Menin-MLL FL inh	gsp ag	ClpP mod
CCCCOc1ccc(C(=O)N2CCC(C)CC2)cc1	-2	8%	27%	9	0.5	0%	1.1%
CN(CC(=O)N1CCCCCC1)S(=O)(=O)c1ccc(Br)cc1	-1	16%	9%	9	?	17%	-0.2%
CC1(C)CC(=O)C(=Cc2cn(CCC#N)nc2-c2ccc(F)cc2)C(=O)C1	3	56µM*	-20%	-12	2.8	-22%	-1.6%
O=C(CCNS(=O)(=O)c1ccccc1)N1CCCC1	1	8%	2%	8	.	-20%	2.5%
O=S1(=O)N=C(N(CCO)/N=C/c2ccc(Br)cc2)c2ccccc21	2	12%	-6%	?	8.0	?	33%
O=C(NCc1cn2ccsc2n1)c1cccs1	3	17%	9%	-1	1.6	8%	-0.5%
COc1cc(/C=N/Nc2ccccc2)ccc1O	-8	-29%	-6%	4	4.2	-8%[15.4 µM]	.
CC(=O)NNC(=S)Nc1cccc(F)c1	-15	5%	4%	5	-4.6	29%	.

# Molecules shown so far that have an aryl thioether with sulfur outside any ring, in the order listed:
canonical_smiles	TRPV1 potentiator	Sfp PPTase inh	gsp antag	CtBP-E1A inh	Menin-MLL FL inh	gsp ag	ClpP mod
O=C(CSc1ccc2nnc(-c3cccs3)n2n1)N1CCCC1	17	-21%	-26%	2	0.1	-3%[15.4 µM]	.
CCOc1ccc(S(=O)(=O)Nc2ccc(O)c(Sc3ncn[nH]3)c2)cc1	2	-20%	4%	-5	1.8	11%	1.4%

# Next part.
canonical_smiles	TRPV1 potentiator	Sfp PPTase inh	gsp antag	CtBP-E1A inh	Menin-MLL FL inh	gsp ag	ClpP mod
COC(=O)c1[nH]c2cc(OC)ccc2c1NC(=O)CN1CCC(C(N)=O)(N2CCCCC2)CC1	-12	2%	-10%	1	-2.2	-1%	?
COCCNC(=S)N1CCC(Cc2ccccc2)CC1	-14	16%	-6%	.	0.0	-5%	-1.1%
FC(F)(F)c1ccc2c(c1)N1CCCC1CN2 (stereo not drawn)	2	?	-5%	-4	?	-6%[15.4 µM]	.
CN(C)S(=O)(=O)c1cccc(NC(=O)CC23CC4CC(CC(C4)C2)C3)c1	-3	5%	-1%	10	2.4	-3%	-0.8%
COc1cccc(CN2CCN(Cc3cccc4nonc34)CC2CCO)c1 (stereo not drawn)	-2	31%[activator]	7%	1	3.5	15%[15.4 µM]	.
CCc1cccc(C)c1NC(=O)CN1C(=O)NC(Cc2ccccc2)C1=O (stereo not drawn)	4	15%	9%	4	-1.4	0%[15.4 µM]	.
COc1ccc(C(c2c(NC(C)=O)sc3c2CCCC3)N2CCN(CCO)CC2)cc1OC (stereo not drawn)	-3	8%	6%	-16	1.5	-27%	-1.2%
O=C(O)c1ccc(S(=O)(=O)Nc2ccc3c(c2)OCCO3)cc1	-33	-7%	6%	7	-0.1	9%[15.4 µM]	-5.6%

# Further records.
canonical_smiles	TRPV1 potentiator	Sfp PPTase inh	gsp antag	CtBP-E1A inh	Menin-MLL FL inh	gsp ag	ClpP mod
O=C(NCC(=O)N(c1ccc(Cl)cc1)C(C(=O)NC1CCCC1)c1cccnc1)c1ccco1 (stereo not drawn)	17	18%	5%	-17	-0.1	?	.
O=C1CCC(=O)N1c1ccccc1	-2	14%	17%	-2	1.4	3%[15.4 µM]	0.8%
COCCN(C(=O)COC(=O)Cc1ccc(Cl)cc1)c1c(N)n(Cc2ccccc2)c(=O)[nH]c1=O	.	.	.	-6	.	-7%	-3.5%
Cc1ccc(NC(=O)CC2(CC(=O)O)CCCC2)c(C)c1	25	10%	-10%	-2	0.2	18%	.
COCCn1cnc2c1c(=O)n(CC#N)c(=O)n2Cc1ccccc1	7	11%	13%	10	.	-5%	.
COCCn1c(=O)[nH]c2cc(C(=O)Nc3cccc(F)c3)ccc2c1=O	-16	6%	-3%	.	-1.4	18%	-8.2%
O=C(CN1C(=O)NC2(CCCCCC2)C1=O)Nc1ccc(Br)cc1Br	27	.	7%	-4	.	9%	-1.4%
CCCCN(C(=O)COC(=O)C1(c2ccccc2)CC1)c1c(N)n(CCC)c(=O)[nH]c1=O	.	.	.	1	.	-22%	-0.5%

# The list goes on:
canonical_smiles	TRPV1 potentiator	Sfp PPTase inh	gsp antag	CtBP-E1A inh	Menin-MLL FL inh	gsp ag	ClpP mod
CCOc1ccc(CN2CCNC(=O)C2CC(=O)NCc2cc(C)n(C)n2)cc1 (stereo not drawn)	0	10%	4%	-5	-9.4	0%	0.5%
Cc1ccc(Nc2nc(-c3sc(NC(=O)c4cccc(Cl)c4)nc3C)cs2)cc1	1	-3%	.	.	5.9	.	.
O=C(Nc1nccs1)c1cccc2ccccc12	21	8%	-1%	-12	4.4	-19%	-2.7%
COc1cc(N)c(Cl)cc1Cl	3	2%	6%	4	-2.0	-6%[15.4 µM]	.
CCOC(=O)CN(C(=O)COc1nc(-c2ccccc2)cc(C)c1C#N)c1ccc(F)cc1	-10	2%	-12%	.	3.7	?	3.9%
CCCOc1ccc(C(=O)NCC(c2cccs2)N(C)C)cc1OC (stereo not drawn)	?	-10%	9%	-16	3.8	-63%[inhibitor]	-15%
COc1ccccc1OCC(=O)Nc1cccc(-c2nnc(-c3ccco3)o2)c1	1	1%	?	2	-5.2	15%[15.4 µM]	.
CCC(C(=O)NCCC(C)C)n1ccc2cc(S(=O)(=O)N3CCCCC3)ccc21 (stereo not drawn)	6	16%	-4%	1	-1.5	-15%	-5.1%

# Sfp PPTase inh, hit marks shown above
compound,Sfp PPTase inh,CtBP-E1A inh,Menin-MLL FL inh,gsp ag
CC1(C)CC(=O)C(=Cc2cn(CCC#N)nc2-c2ccc(F)cc2)C(=O)C1,56µM*,-12,2.8,-22%

# (next part)
canonical_smiles	TRPV1 potentiator	Sfp PPTase inh	gsp antag	CtBP-E1A inh	Menin-MLL FL inh	gsp ag	ClpP mod
Cc1ccsc1/C=N\NC(=O)CCc1c(C)n[nH]c1C	-8	10%	-6%	0	-5.5	-29%[15.4 µM]	.
COc1ccc(C)cc1NC(=O)C(CCS(C)(=O)=O)NC(C)=O (stereo not drawn)	-14	23%	7%	-7	2.8	-43%[inhibitor]	-0.7%
CCOC(=O)c1sc(=S)n(-c2ccc(F)c(F)c2)c1N	22	22µM*	14%	1	2.8	12%	0.9%
O=C(NC1CCC(O)CC1)c1ccc(-c2ccc([N+](=O)[O-])cc2)o1 (stereo not drawn)	-4	?	-2%	.	1.7	28%	-3.4%
CN(Cc1ccccc1)C(=O)c1[nH]cnc1C(=O)Nc1ccccc1F	.	.	.	7	.	-23%	1.5%
